Source: PubChem (Fisher Drug Discovery Resource Center)
NPYLR7 ag = mosquito NPYLR7 agonism; HEK293T NPYLR7/Galpha15, GCaMP6s calcium fluorescence; activation, % at 10 µM; 270,000 compounds, 0.15% hits; in the data active = activation above about 40%;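 also: 0% = vehicle and 100% = reference agonist at the receptor; some compounds past the cut are filed as inactive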
NPYLR7 ag max-min = recorded beside NPYLR7 ag, whose call it bears; activation, %; measured here: Max-Min RFU normalised activation; some inactives read as strong as hits;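 span of the calcium signal over five minutes; 0% = vehicle and 100% = native peptide agonist; compound fluorescence can raise it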
An asterisk follows results filed as active; & = joins results of further samples. A portion of the library, so the mix of outcomes need not match the whole.

The line under a structure holds: NPYLR7 ag | NPYLR7 ag max-min
CCC(CC)C(=O)Nc1nnc(SCC(=O)Nc2cc(C(F)(F)F)ccc2Cl)s1
→ -1 | -1
Nc1ncnc(Oc2ccccc2)c1[N+](=O)[O-]
→ -1 | -2
O=C(Cn1nnnc1CN1CCOCC1)NCc1cnn(Cc2ccccc2)c1
→ -5 | -6
O=C(NC(Cc1ccccc1)c1ccccc1)c1csc(CSc2nnc(-c3ccncc3)n2-c2ccccc2Cl)n1 (stereo unspecified)
→ -9 | -12
CC(Sc1nnc(N)s1)C(C)c1nc2ccccc2s1 (stereo unspecified)
→ 8 | 5
O=C(Cn1c(=O)oc2ccc(Cl)cc21)NCc1ccccc1Cl
→ 2 | 1
Cc1ccc(S(=O)(=O)N(Cc2nccn2Cc2ccccc2C)C2CCCCC2)cc1
→ 6 | 15
COC(=O)CC(=O)N1CCN(c2nccc(-c3ccc(Oc4ccccc4)cc3)n2)CC1
→ 5 | 2
COc1ccccc1NC(=O)c1ccc(C)c(S(=O)(=O)Nc2ccccc2OC)c1
→ -21 | -24
CCOC(=O)c1cc(-c2cccc(NC(=O)[C@@H]3C[C@H]3c3ccccc3)c2)n(-c2cccc(F)c2)n1
→ 21 | 7
O=C1CC2(CCN(C(=O)c3ccccc3OCc3ccc(Cl)cc3)CC2)N1
→ 7 | 5
O=C(COC(=O)C=Cc1ccco1)COC(=O)C=Cc1ccco1
→ -15 | -21
O=S(=O)(Nc1ncccn1)c1ccc(NC(=S)Nc2ccc(F)cc2)cc1
→ 0 | -2
O=C(O)c1cccc(CSc2nc(-c3ccccc3)cc(N3CCN(Cc4ccccc4)CC3)n2)c1
→ -9 | -3
O=C(NCCc1nc2ccccc2[nH]1)C1CCC(=O)N(CCc2cccc(F)c2)C1 (stereo unspecified)
→ 1 | -2
CCOc1ccccc1NC(=O)N1CCN(c2nc(CCc3ccccc3)nc3sc(C)c(C)c23)CC1
→ -2 | 4
COCCN(CC(=O)N(CCc1c[nH]c2ccccc12)Cc1ccc(OC)c(OC)c1)C(=O)C(C)(C)CCl
→ 10 | 19
COC(=O)C1C(c2ccc(Br)cc2)Nc2nnc(C(F)(F)F)n2C1(C)O (stereo unspecified)
→ 3 | 10
COC(=O)C1=C(C)N(C)C(C)=C(C(=O)OC)C1c1ccc(C)s1
→ -1 | -4
CCc1nc2ccc(C(=O)Nc3cccc(NS(C)(=O)=O)c3)cn2c1N(CCN(C)C)CC1CC1
→ -5 | -10
Cc1cccc(-c2ccc(NC(=O)C3CCN(Cc4nccs4)CC3)cc2)c1
→ -1 | -3
Cc1ccc(-c2noc(-c3ccccc3Cl)n2)cc1
→ -7 | -14
Cc1csc2nc(CN3CCN(CC(=O)N(C)C)CC3)cc(=O)n12
→ 8 | 9
COc1ccc(Cl)cc1NS(=O)(=O)c1ccc(Cl)cc1
→ 1 | 6
CCN(CC1CCOCC1)C(=O)CCn1c(C)cc(C)nc1=O
→ 12 | 9
Cc1ccccc1Cn1cccc1CN(CCC(C)C)Cc1cccc(C#N)c1
→ 30 | 25
CN(C)CCCNC(=O)c1c(O)nc2ccccn2c1=O
→ -2 | 12
CCc1nc2ccc(C(=O)NCCCn3ccnc3)cn2c1N(CC)Cc1cccc(Br)c1
→ 15 | 10
O=c1c(Cl)c(N2CCN(c3ccc(F)cc3)CC2)cnn1-c1ccccc1
→ 2 | 5
CC(=O)NC1C(=O)N(CCCOc2cccc3ccccc23)c2c(C)cc(C)cc21 (stereo unspecified)
→ 11 | 11

Single records, from the list above. Values in the order: NPYLR7 ag | NPYLR7 ag max-min
CC(Sc1nnc(N)s1)C(C)c1nc2ccccc2s1 (stereo unspecified) across the screens: 8 | 5
CCc1nc2ccc(C(=O)Nc3cccc(NS(C)(=O)=O)c3)cn2c1N(CCN(C)C)CC1CC1 across the screens: -5 | -10

Continued:
The line under a structure holds: NPYLR7 ag | NPYLR7 ag max-min
Cc1cc(C)cc(-n2nnc(C(=O)OCc3cccc(F)c3)c2C)c1
→ -1 | -1
C/C(=C/C(=O)NCCc1ccccc1F)CCc1ccccc1
→ -13 | -14
Cc1ccc(S(=O)(=O)N2CCN(C(=O)CSc3nc4ccccc4c(=O)[nH]3)CC2)c(C)c1
→ -2 | -5
CCOc1ccc(C2c3cccn3CCN2C(=O)NC2CCCCC2)cc1 (stereo unspecified)
→ 3 | 2
CCOc1cc(C)c(C)cc1S(=O)(=O)n1cc(C)nc1CC
→ 9 | 5
C=CCNCC#CCOc1c(C)cccc1C
→ -9 | -18
CCNc1ccnc(-c2ccc(OC)nc2)n1
→ 5 | 2
Cc1noc(C)c1CN1CCN2C=C(C(=O)N3CCN(C)CC3)OC2=NC1=O
→ 1 | 2
Cc1nc(NC(=O)COC(=O)C2=NNC(=O)CC2)c(Cl)cc1Cl
→ -1 | -2
CCC(C)NC(=S)NC(=O)c1ccco1 (stereo unspecified)
→ 19 | 10
Cc1ccc(NC(=O)C2(C)CCN2Cc2ccc3c(c2)OCCO3)cc1O (stereo unspecified)
→ 9 | 2
CCCCNC(CC(=O)Nc1ccc2ccccc2c1)C(=O)O (stereo unspecified)
→ 7 | 8
Cc1cccc(CNC(=O)C2(N(C)CCc3ccccc3)Cc3ccccc3C2)n1
→ 2 | -4
COc1ccc(OC)c(NC(=O)CSc2nc3[nH]ncc3c(=O)[nH]2)c1
→ -1 | -1
C=c1ccccc1=c1[nH]/c(=C\c2cc(OC)c3c(c2)OCCO3)c(=O)o1
→ 2 | 5
CCC(C)N(Cc1csc(COc2ccc(Cl)cc2)n1)C(=O)c1ccco1 (stereo unspecified)
→ 14 | 25
CCCC(O)CN(CCCOC)Cc1cccn1C (stereo unspecified)
→ 25 | 35
Cc1nc2c(c(NCCc3nccc(-c4ccccc4)n3)n1)CCNC2
→ -6 | -11
CCCc1ncncc1C(=O)N1CCCC(Nc2ccc3c(c2)OCCO3)C1 (stereo unspecified)
→ -2 | -5
Cc1cc(C(=O)NCC(C)C)ccc1NC(=O)NCCn1ccnc1
→ 8 | 2
Cc1nc2c(c(NCC(c3cccnc3)N3CCOCC3)n1)CCNC2 (stereo unspecified)
→ 0 | -1
CCCS(=O)(=O)N1CCCc2cc(NC(=O)CN3C(=O)CCC3=O)ccc21
→ 1 | -1
CCN(CC)CCCNC(=O)c1nnc2n(c1=O)CCN2c1ccccc1
→ 5 | 5
C=CCn1c(=S)sc2c(=O)[nH]c(-c3ccc4c(c3)OCO4)nc21
→ 0 | 1
Cc1cccc(C(=O)N2CCN(c3ccc(C)c(F)c3)C(=O)C2C)c1 (stereo unspecified)
→ 22 | 25
Cc1ccc(S(=O)(=O)Nc2ccc(Br)cn2)cc1
→ -1 | 11
O=C(O)C1CCN(C(=O)C2CC2)CC1
→ 6 | 13
CCOCCn1cc(C2CCN(C(=O)CCc3ccccc3)CC2)c2ccccc21
→ 23 | 31
Cc1c(C(F)(F)F)cc(C(F)(F)F)c(C)c1N
→ 18 | 13
CC(C)Cn1c(-c2ccco2)nc2c(c(=O)c3ccccc3n2C)c1=O
→ 2 | 0
CCN(CC)C(=O)[C@@H]1C[C@H](N)CN1C(=O)Cn1c(=O)cc(C)c2ccccc21
→ 19 | 11
O=C(CS(=O)(=O)Cc1ccccc1)N(Cc1ccco1)c1nc2ccc(F)cc2s1
→ -8 | -13
COc1ccc(-n2nc(-c3ccc(OC)cc3OC)cc2C(=O)NCCc2ccc(OC)c(OC)c2)cc1
→ 18 | 14
CCc1ccc2c(c1)NC(=O)C2(C)Cc1ccc(Cl)cc1 (stereo unspecified)
→ 0 | 0
O=C(Cn1cnc2c(nnn2Cc2ccc(Cl)cc2)c1=O)NCc1ccc(F)cc1
→ 0 | 0
Cn1c(=O)[nH]c(=O)c2c1nc(SCc1ccc(Cl)cc1)n2Cc1ccccc1
→ -4 | -4
OCCN1CCN(c2ncnc3sc4c(c23)CCCC4)CC1
→ 0 | -3
COc1ccc(CN2CCCn3cccc3C2c2ccc(F)cc2)c(OC)c1 (stereo unspecified)
→ 3 | 13
CCOC(=O)c1nnc2c(-c3ccccc3)c(CC)nn2c1C
→ -15 | -20
CC(C)Sc1nnc2n1CCN2c1ccc(F)cc1
→ 6 | 11
Clc1cc(/C=N\n2cnnc2)cc(Cl)c1OCCOc1ccccc1
→ 4 | -5
Cc1nc(=S)nc(N)[nH]1
→ -1 | 4
CCCCn1c(SCC(=O)c2ccc3c(c2)OCCO3)n[nH]c1=O
→ 4 | -2
CC(C(=O)N1CCCn2nc(C(=O)Nc3ccccc3)cc2C1)n1cncn1 (stereo unspecified)
→ 4 | 11
O=C(/C=C/c1cn(S(=O)(=O)c2cccc3ccccc23)c2ccccc12)N1CCC(O)(Cc2ccccc2)CC1
→ -13 | -16
COc1cc(C(=O)N2CCOC(COc3cccc(C(F)(F)F)c3)C2)cc(OC)c1C (stereo unspecified)
→ 2 | -3
O=C(c1csc2c1CCCC2)N1CCN(S(=O)(=O)c2ccc(F)c(Cl)c2)CC1
→ 2 | -5
Cc1ccsc1C(=O)N1CCC(Cn2cc(CN3CC[C@@H](N)C3)nn2)CC1
→ -2 | -5
COc1ccc(OC)c(-c2cc(N)nc3[nH]ccc23)c1
→ 16 | 6
CCOc1ccccc1O[C@H](c1ccccc1)[C@H]1CNCCO1
→ 4 | -5
CC(C)c1nc(C#N)c(C#N)nc1-c1ccc2c(c1)OCCOCCOCCOCCO2
→ 7 | 5
CCN(CCn1cccn1)Cc1nc(-c2cccs2)oc1C
→ 5&-9 | 1&-14
Cc1ccccc1Cn1c(C)c(C(=O)NCc2ccc3c(c2)OCCO3)sc1=O
→ 6 | 5
Cc1ccc(-n2c(SCc3nc(C(=O)NC(C)CCc4ccccc4)cs3)nnc2-c2cccnc2)cc1 (stereo unspecified)
→ 3 | 9
COCCCNC(=O)C(NC(=O)c1ccccc1F)C1CCN(C(=O)COC)CC1 (stereo unspecified)
→ 16 | 21
COc1cc(C2NC(=O)c3ccccc3N2)cc(Cl)c1OC (stereo unspecified)
→ -7 | -8
C=CCN1C=CC=C/C1=C\C=C(/C#N)C(=O)OCC
→ 8 | 6
CC(=O)NCCn1cnc(-c2ccccc2)c1/C(C)=C/c1ccco1
→ 3 | 4
N#Cc1ccc(S(=O)(=O)CCSc2nc3ccccc3[nH]2)cc1
→ 10 | -4
Cc1nc(N2CCC(C)CC2)ncc1-c1cc(=O)[nH]c(N2CCN(c3ccccc3)CC2)n1
→ 1 | 35

Single values from above:
For NPYLR7 ag, N#Cc1ccc(S(=O)(=O)CCSc2nc3ccccc3[nH]2)cc1 is entered as 10
For NPYLR7 ag, CC(=O)NCCn1cnc(-c2ccccc2)c1/C(C)=C/c1ccco1 is entered as 3
For NPYLR7 ag, Cc1ccc(-n2c(SCc3nc(C(=O)NC(C)CCc4ccccc4)cs3)nnc2-c2cccnc2)cc1 (stereo unspecified) is entered as 3

Next section:
SMILES	NPYLR7 ag	NPYLR7 ag max-min
Cc1ccc(C(F)(F)F)cc1NC(=O)NCCNC(=O)C(C)C	13	9
CNc1cc(-c2c(OC)cccc2OC)ncn1	5	3
CC(C)CC(C)N(C)C(=O)n1ccnc1 (stereo unspecified)	23	11
COCCNS(=O)(=O)c1cc(C(=O)O)cc(-c2c(C)cccc2C)c1	7	4
Fc1ccc(Oc2cc(C(F)(F)F)nc(SCc3ccccc3Cl)n2)c(F)c1	6	25
COc1ccc(-n2ncc(C(C)NCc3ccc4nsnc4c3)c2C)cc1 (stereo unspecified)	7	5
c1ccc(C(Cc2nc(-c3ccccn3)no2)c2ccccc2)cc1	7	4
Cc1cc(OC(=O)c2ccc(S(=O)(=O)N(C)C)cc2)c([N+](=O)[O-])c(=O)[nH]1	-3	-3
CCc1nc2n(n1)C(=O)C(C(c1ccc(Br)cc1)N1CCN(C)CC1)S2 (stereo unspecified)	-6	-11
COc1cn2c(cc1=O)C(=O)N(CCNC(=O)C(c1ccccc1)c1ccccc1)CC2	14	5
O=C1OCc2csc(Br)c2-c2c1csc2Br	-6	-2
Clc1ccc(CSc2ncccn2)cc1	6	6
COc1ccc(CCNC(=O)c2cc(-c3cccs3)nn2-c2cccc(Cl)c2)cc1OC	15	14
N#Cc1c(N)nc(N2CCCCC2)c(C#N)c1C1(C#N)CC1	2	2
O=C(NC1CCN(c2ccccc2C(=O)NCc2ccc3c(c2)OCO3)CC1)c1ccccc1Cl	-1	-3
CC1CCC(C(N)=O)CN1C(=O)c1cc(Cl)c(Cl)n1C (stereo unspecified)	-1	1
COc1cccc(CCNC(=O)c2cccnc2Oc2cccc([N+](=O)[O-])c2)c1	-6	-11
CN1CCC2(CC1)CN(C(=O)c1ccccc1-c1ncc[nH]1)CCCN2C	-3	-4
CCCCCc1ccc(C(=O)Nc2ccc(-n3nc(OC)nc3-c3ccc(C)cc3)cc2)cc1	13	11
NC(=O)c1ccc(N2CCN(Cc3ccncc3Cl)CC2)cc1	-5	-8
Cc1ccccc1N=c1oc2ccc(Br)cc2cc1C(N)=O	1	2
CCOC(=O)Cn1ncc2c1CCN(C(=O)/C=C/c1ccoc1)C2	0	32
CCc1nc2n(n1)C(=O)C(C(c1ccc(F)c(F)c1)N1CCC(O)CC1)S2 (stereo unspecified)	-2	-9
Cc1ccn2c(NC3CCCCC3)c(-c3ccccc3OS(=O)(=O)c3ccccc3)nc2c1	11	6
CCOc1cccc2sc(=NC(=O)c3ccc4ncsc4c3)n(CC)c12	0	-5

Reformatted: entries from further up
> O=C(NC1CCN(c2ccccc2C(=O)NCc2ccc3c(c2)OCO3)CC1)c1ccccc1Cl
  NPYLR7 ag = -1 | NPYLR7 ag max-min = -3

> CCc1nc2n(n1)C(=O)C(C(c1ccc(F)c(F)c1)N1CCC(O)CC1)S2 (stereo unspecified)
  NPYLR7 ag = -2 | NPYLR7 ag max-min = -9

Other records follow.
SMILES	NPYLR7 ag	NPYLR7 ag max-min
Clc1cc2c(cc1CSc1nnnn1-c1ccccc1)OCO2	6	6
CCCn1c(C)cn2c3c(=O)n(CC(=O)OC)c(=O)n(C)c3nc12	2	3
Cn1c(CN2CCN(S(=O)(=O)c3ccc(Cl)s3)CC2)cc(=O)n(C)c1=O	9	6
CCCCc1ccc(CN2CCN3C(=O)CNC(=O)C3C2)s1 (stereo unspecified)	-1	-1
CCc1c(C)nc(-n2nc(C)cc2C)n(CC(=O)Nc2ccc(OC)cc2OC)c1=O	2	1
Cc1ccc(-n2c(C(C)N(Cc3ccco3)C(=O)CC(C)CC(C)(C)C)nc3ccccc3c2=O)cc1C (stereo unspecified)	1	-7
